Env fusion inh = HIV envelope-mediated fusion inhibition. inhibition, % at 12.3 µM. HeLa-JRFL Env/CEM21 cell fusion, luciferase. AID 651610. 360,000 tested, 1.1% active;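 active = mean replicate inhibition score of at least 50 and every replicate individually at or above 50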;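 note: 0% = plate neutral controls and 100% = maraviroc near 300 nM; one replicate is shown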
CSC inhib = blocks cancer stem cells; cancer stem cell-like cells viability, luminescence; inhibition, % at 7.5 µM; 300,000 tested, 1.1% active; AID 2717;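 active = mean at 75% or more and at least half the replicates too; tested in HMLE shEcad cells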;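 note: 0% = median of negative and 100% = median of positive control wells; the first replicate is given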
MT1-MMP act inh = inhibitors of human MT1-MMP activation | P50281 | HT1080 RFP-PRO-GFP cells, GFP/RFP ratio fluorescence, overnight; percent of plate control window, DMSO zero | GFP/RFP ratio change, % at 20 µM | 360,000 tested, 0.061% active;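 active = GFP/RFP ratio change of at least 30% with cell ATP level not reduced by more than half and red fluorescence within 50% of control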; note: strong numbers were not always called active
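Compound: 20 µM single dose, 1% DMSO / System: HT1080 RFP-PRO-GFP cells / Controls: DMSO and RFP-L50D-GFP cell wells / Read-out basis: GFP/RFP fluorescence ratio / Schedule: overnight compound exposure at 37 °C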
Rce1 inhib = inhibitors of yeast Ras-converting enzyme | yeast membranes, quenched prenylated peptide cleavage fluorescence | calls only | 290,000 tested, 0.27% active | Q03530;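 active = fall in fluorescence gain of 50% or more versus controls, with final raw signal at or below 3038400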;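 note: plate controls were neutral control wells for no effect and wells lacking membranes for full effect; tested at 10 µM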
Target sequence (Q03530 whole entry, looked up): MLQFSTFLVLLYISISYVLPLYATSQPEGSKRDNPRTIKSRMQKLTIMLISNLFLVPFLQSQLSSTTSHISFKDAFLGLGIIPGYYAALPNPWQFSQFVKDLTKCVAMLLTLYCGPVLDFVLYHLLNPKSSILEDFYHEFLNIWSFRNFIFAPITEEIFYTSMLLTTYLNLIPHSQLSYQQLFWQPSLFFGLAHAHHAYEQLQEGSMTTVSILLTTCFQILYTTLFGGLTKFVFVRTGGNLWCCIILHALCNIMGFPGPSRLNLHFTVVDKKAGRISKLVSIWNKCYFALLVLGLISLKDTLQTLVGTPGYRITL
PABP polyA inh = blocks human PABP binding to poly(A) RNA; inhibition, % at 35 µM; P11940; fluorescence polarization; 290,000 tested, 1% active;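 active = 50% or more with normal probe brightness, or confirmed in later tests; about a fifth of its hits are not listed in these tables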;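 note: calls also rest on retests at 20 µM and on dose response follow-up; controls were probe without protein and protein plus probe with vehicle; some compounds called inactive have numbers as strong as hits; many hits fall short of the cut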
Target sequence (P11940 whole entry, looked up): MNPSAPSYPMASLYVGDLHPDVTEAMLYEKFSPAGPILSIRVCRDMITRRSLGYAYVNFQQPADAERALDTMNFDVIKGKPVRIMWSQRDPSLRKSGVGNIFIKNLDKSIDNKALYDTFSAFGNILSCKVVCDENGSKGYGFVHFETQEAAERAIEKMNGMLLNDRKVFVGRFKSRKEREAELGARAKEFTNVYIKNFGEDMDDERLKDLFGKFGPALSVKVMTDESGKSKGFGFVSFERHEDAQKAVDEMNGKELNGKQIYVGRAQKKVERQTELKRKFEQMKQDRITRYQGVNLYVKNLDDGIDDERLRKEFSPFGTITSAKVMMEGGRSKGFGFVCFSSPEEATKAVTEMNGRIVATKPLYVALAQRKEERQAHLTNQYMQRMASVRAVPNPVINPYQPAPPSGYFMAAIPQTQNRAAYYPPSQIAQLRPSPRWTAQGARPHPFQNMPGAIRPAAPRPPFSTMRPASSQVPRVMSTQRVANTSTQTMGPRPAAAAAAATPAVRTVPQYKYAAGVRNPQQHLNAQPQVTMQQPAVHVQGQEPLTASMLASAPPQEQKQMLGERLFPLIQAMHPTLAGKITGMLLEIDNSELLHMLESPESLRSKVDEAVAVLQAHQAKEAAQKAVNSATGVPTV
Yeast UUG start = modulators of start codon recognition fidelity in yeast. S. cerevisiae UUG-firefly luciferase reporter, luminescence/redox ratio. activity score, % at 18.7 µM. 350,000 tested, 0.13% active. AID 602363;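 active = replicate mean at a twofold rise or more, about +100% in these data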;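 note: firefly luciferase made from a UUG start codon reports start codon fidelity; reporter light over untreated wells divided by growth signal over untreated wells; some hits fall short of that in this replicate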
eIF4H inh = inhibitors of RNA binding by human eIF4H; Q15056; eIF4H fluorescence polarization binding assay; inhibition, % at 35 µM; 290,000 tested, 0.94% active; AID 2012;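 active = 50% or more with normal probe brightness, or confirmed in later tests; about a fifth of its hits are not listed in these tables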;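 note: calls also rest on retests at 20 µM and on dose response follow-up; 0% = protein and probe with vehicle and 100% = probe without protein; strong numbers were not always called active; many hits fall short of the cut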
MT1-MMP act inh RFP = second read-out of MT1-MMP act inh, no call of its own (marks repeat the call); RFP signal change, %; measured here: RFP expression control read;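 0 = vehicle wells; hits needed this value within 50% of zero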
* = called active by the depositor; i = inactive; . = no result given. These rows are one share of the data; the hit share may differ from the screen's.

Below each compound: Env fusion inh	CSC inhib	MT1-MMP act inh	MT1-MMP act inh RFP	Rce1 inhib	PABP polyA inh	Yeast UUG start	eIF4H inh
Cn1c(=O)[nH]c(=O)c2c1nc(CN1CCN(c3ccc(F)cc3)CC1)n2CCN1CCOCC1
→ 8.6	0.8	1.2	4.5	i	10.1	-15.8	-10.0
CCOc1ccc(CCNC(=O)COC(=O)c2nn(C)c(=O)c3ccccc23)cc1OCC
→ 0.4	-9.8	1.8	2.2	i	.	-7.1	.
CCCCn1c(SCC(=O)Nc2nnc(C(C)C)s2)nc2c1c(=O)n(C)c(=O)n2C
→ 55.0*	0.5	-11.3	-12.8	i	-14.2	7.3	-10.9
COc1ccc(S(=O)(=O)Nc2ccc(NC(C)=O)cc2)cc1Cl
→ 7.3	-15.0	0.7	2.1	i	-6.2	.	-7.1
COc1ccccc1CN1CC(C(=O)NCC2(O)CCCCC2)CCC1=O (centres undefined)
→ -8.4	.	0.9	1.2	.	.	-3.5	.
O=c1cnn(Cc2ccc(F)cc2)c2ccccc12
→ -9.3	-22.3	-3.0	-0.8	i	4.0	-8.6	2.3
Cc1c(C(C)C)c(=O)n(-c2ccc(S(=O)(=O)NC(C)C)cc2)n1C
→ 1.7	-2.6	-1.2	-15.5	i	-5.9	-14.4	4.6
Cc1ccccc1-n1c(SCC(=O)NCc2cccs2)nnc1-c1ccncc1
→ -18.9	-5.8	-3.7	2.5	i	-4.7	-7.9	-0.5
Cc1ccccc1-c1nnn(CC(=O)NC(=O)NC2CCCC2)n1
→ .	10.8	1.2	1.4	.	.	21.9	.
Cc1cccc(N/C=C/C(=O)c2ccc(Cl)cc2)c1
→ -97.4	4.0	2.0	1.2	i	-1.8	-8.6	1.8
COC(=O)CCCNC(=O)CCc1nnc(-c2ccc(-c3ccccc3)cc2)o1
→ 29.1	-12.6	1.9	2.5	i	.	13.8	.
CCOc1ccc(S(=O)(=O)NC(C)C(=O)NCc2ccncc2)cc1 (centres undefined)
→ -8.4	-3.4	-1.5	-1.9	i	3.0	-12.9	5.3
Cc1c(C(=O)N(C)C)sc(NC(=O)c2cc([N+](=O)[O-])cc([N+](=O)[O-])c2)c1C#N
→ -65.9	-1.7	13.0	1.4	i	-10.2	7.8	10.4
CC(=O)Nc1ccccc1-c1ccc(C)o1
→ .	-7.1	7.7	7.3	i	7.6	-9.6	1.6
OC(CNCc1ccc(F)cc1)(c1ccccc1)c1ccc(F)cc1 (centres undefined)
→ -250.7	6.2	-4.1	0.9	i	4.5	7.1	-17.9
Cc1ccccc1/C=C\c1nc(O)c([N+](=O)[O-])c(=O)[nH]1
→ -0.1	-6.9	0.5	1.0	i	14.7	-16.6	-5.5
CC(=O)N1C(C)c2ccccc2C(C)(C)CC12CCCCC2 (centres undefined)
→ 11.4	-3.4	-15.7	-7.9	i	-4.0	.	-6.8
Cc1nc(N2CCCCC2)sc1C(=O)c1cccc([N+](=O)[O-])c1
→ -10.4	2.0	2.7	-6.2	i	9.9	.	-6.0
O=C(NCC1CCCO1)c1ccc(-c2ccccc2Cl)o1 (centres undefined)
→ -51.9	-8.6	0.0	-1.2	i	.	-8.1	.
OC[C@@H]1CN(Cc2ccccc2)C[C@H](n2cnc3c(N4CCN(c5ccccc5)CC4)ncnc32)O1
→ 19.1	.	-1.6	2.1	.	.	16.9	.
CCOc1ccccc1NC(=O)C(=O)/C=C(\O)c1cc(OC)ccc1OC
→ -57.8	-2.1	3.7	6.0	i	-1.2	-11.0	4.9
Cc1ccc(/C=N/n2c(C)nc3ccccc3c2=O)o1
→ -18.6	.	1.3	2.8	i	-0.2	.	-2.3
CN(C(=O)COC(=O)c1ccc(F)c(S(=O)(=O)N2CCOCC2)c1)C1CCS(=O)(=O)C1 (centres undefined)
→ .	2.0	-2.3	1.9	i	.	-4.7	.
N#CCC(=N)N1CCN(c2ccc(F)cc2)CC1
→ -4.2	0.9	-0.3	1.1	i	2.3	.	23.0
COc1ccc(Nc2cc(C)c3c(O)cccc3n2)cc1
→ -64.2	33.4	1.5	-13.6	i	5.3	-27.1	1.9
CCOC(=O)NC(=S)Nc1cccc(NC(=S)NC(=O)OCC)c1
→ 20.9	-8.2	1.0	1.8	i	5.9	.	-6.1
N#C/C(=N\Nc1cccc(Cl)c1)C(=O)c1ccccc1
→ 21.6	41.4	5.7	-18.7	i	13.4	-8.6	-3.1
CC(C)c1ccc(NC(=O)CCNC(=O)N2CC(=O)Nc3ccccc32)cc1
→ -7.4	-5.1	0.8	1.0	i	-2.2	-16.1	0.9
CC(C)CN(CC(C)C)C(=O)CN1C(=O)NC2(CCCc3ccccc32)C1=O (centres undefined)
→ 0.6	-8.2	-3.9	-6.9	i	-8.9	.	-4.1
Fc1ccccc1/C=N/Nc1nc(N2CCCCC2)nc(N2CCCCC2)n1
→ 3.2	-8.1	-3.7	-2.1	i	-3.9	.	-3.9
COc1cc(/C=C/c2onc(C)c2[N+](=O)[O-])cc(OC)c1OC
→ 7.5	-8.7	-5.3	-1.0	i	.	.	.
CCOC(=O)C1(Cc2cccc(OC)c2)CCCN(C(=O)c2cc(C)oc2C)C1 (centres undefined)
→ -23.1	-11.9	1.9	-4.2	i	.	-5.1	.
Cc1ccc(S(=O)(=O)N2CCn3cccc3C2C)cc1 (centres undefined)
→ .	-6.2	4.4	-0.3	.	.	-5.1	.
CCCCN(C(=O)CN1C(=O)C2CCCCC2C1=O)c1c(N)n(CCCC)c(=O)[nH]c1=O (centres undefined)
→ 2.8	7.7	3.3	2.1	i	.	-10.7	.
CCc1sc2nc(SCC(=O)Nc3cc(C)on3)n(-c3cccc(OC)c3)c(=O)c2c1C
→ .	13.7	0.3	-1.4	i	-5.7	3.7	0.2
COC(=O)C1=C(C)N(c2ccc(OC)c(OC)c2)C(=O)C1
→ .	.	21.3	-1.2	i	-5.6	-3.9	-12.2
O=C(CSc1nc2c(cnn2-c2ccc(F)cc2)c(=O)[nH]1)N1CCCc2ccccc21
→ 39.9	-0.4	0.1	2.7	i	2.7	-7.9	-5.2
CCNC(=O)OCC12CC3CC(CC(C3)C1)C2
→ -0.9	-14.5	5.9	1.7	i	0.7	.	1.5
CC[C@@H](C)[C@H](NC(=O)Cc1c(C)c2c(cc(C)c3c(C)coc32)oc1=O)C(=O)O
→ 20.4	5.8	5.7	1.8	i	4.6	-1.0	-12.9
Cc1cc(C)cc(C(=O)N2CCN=C2SCc2ccc([N+](=O)[O-])cc2)c1
→ 11.7	19.8	2.1	1.6	i	-15.3	-14.1	-3.8
CCOc1ccc(/C=N/NC(=O)c2ccoc2C)cc1OC
→ -27.9	9.4	-3.6	-5.2	.	2.0	10.0	-8.8
CC(=O)Nc1ccc(S(=O)(=O)Nc2ccccc2C(=O)N2CCCCCC2)cc1
→ 9.8	0.2	-6.0	-3.1	i	7.9	-5.4	0.0
CCc1ccc(NC(=O)NCC2CCN(c3ccc(OC)cc3)C2)cc1 (centres undefined)
→ 16.7	-3.5	-8.2	-7.6	i	-1.0	-7.7	3.4
CCCc1nc2oc3c(NCc4ccccn4)ncnc3c2c2c1COC(C)(C)C2
→ -65.4	-10.0	0.9	-2.8	.	9.4	-16.6	-6.2
COc1cc(CO)cc(Br)c1OCC(=O)O
→ -10.8	-1.2	-1.8	3.4	i	23.6	-8.8	5.7
CC(Sc1ccccc1)C(=O)N1CCN(S(=O)(=O)c2ccccc2F)CC1 (centres undefined)
→ .	-3.5	0.2	3.3	i	-3.9	-8.8	-4.4
O=C(COC(=O)c1ccccc1O)NCC1COc2ccccc2O1 (centres undefined)
→ .	-12.4	9.0	-3.7	.	.	-21.1	.
CC1(C(=O)NS(=O)(=O)c2ccc(C#N)cc2)CCN1C(=O)CCC1CCCC1 (centres undefined)
→ -2.9	.	1.7	7.7	.	.	-6.8	.
CN(C(=O)COC(=O)COc1ccc2c(c1)CCC2)c1c(N)n(Cc2ccccc2)c(=O)[nH]c1=O
→ -6.3	-5.5	2.1	0.7	i	.	-1.0	.
COc1cc2ccccc2cc1C(=O)N1CC(C)CC(C)C1 (centres undefined)
→ 3.0	-3.3	0.5	1.1	i	-3.2	-0.4	-22.4
O=C(CN1C(=O)NC2(CCOc3ccccc32)C1=O)Nc1cccc([N+](=O)[O-])c1 (centres undefined)
→ .	0.9	2.1	-2.2	.	.	-2.2	.
Cc1noc(C)c1C(=O)N(C)C[C@@H]1OCc2ccccc2-c2c(n(C)c3ccccc23)C(=O)N([C@H](C)CO)C[C@H]1C
→ -32.6	.	0.9	0.7	.	.	-11.1	.
NC(=O)c1ccsc1NC(=O)CCc1ccccc1
→ 4.3	3.7	0.4	4.4	i	-1.7	-7.4	8.3
O=C(Nc1ccc(NC(=O)C2CC2)cc1)c1cccs1
→ -12.9	-1.2	3.3	0.5	i	4.1	-10.5	-11.5
O=C(NNC(=O)c1cnccn1)c1ccc(Cl)c(Cl)c1
→ 18.7	-3.1	-0.7	6.2	i	5.3	-15.0	9.2
CCN(CC)c1ccc(NC(=O)CSc2nc(C)cc(=O)[nH]2)cc1
→ 7.7	-3.5	1.6	1.9	i	-8.1	-9.5	-7.5
Cc1cccc(-c2noc(Cc3ccc(Cl)cc3)n2)c1
→ .	-14.5	-0.3	-1.4	i	-4.2	-18.9	-0.3
CSc1nc(NCc2ccco2)c2sc3nc(C(C)C)c4c(c3c2n1)CC(C)(C)OC4
→ 26.0	53.6	-3.2	-8.3	i	-1.8	-3.5	-18.8
Cc1ccnc(NC(=O)C2CCCN(c3ncnc4c3nc3n4CCCCC3)C2)c1 (centres undefined)
→ 30.4	10.0	-9.2	-7.0	i	-0.8	3.4	1.9
CCOC(=O)c1c(NC(=O)CSc2nnc(CN3CCOCC3)n2C)sc2c1CCCC2
→ -7.9	-7.6	0.9	-1.2	i	-7.9	-24.5	-1.2

Gathered by group: the entries above with a cyano group (four)
Below each compound: Env fusion inh	CSC inhib	MT1-MMP act inh	MT1-MMP act inh RFP	Rce1 inhib	PABP polyA inh	Yeast UUG start	eIF4H inh
Cc1c(C(=O)N(C)C)sc(NC(=O)c2cc([N+](=O)[O-])cc([N+](=O)[O-])c2)c1C#N
→ -65.9	-1.7	13.0	1.4	i	-10.2	7.8	10.4
N#CCC(=N)N1CCN(c2ccc(F)cc2)CC1
→ -4.2	0.9	-0.3	1.1	i	2.3	.	23.0
N#C/C(=N\Nc1cccc(Cl)c1)C(=O)c1ccccc1
→ 21.6	41.4	5.7	-18.7	i	13.4	-8.6	-3.1
CC1(C(=O)NS(=O)(=O)c2ccc(C#N)cc2)CCN1C(=O)CCC1CCCC1 (centres undefined)
→ -2.9	.	1.7	7.7	.	.	-6.8	.

(listing goes on)
Below each compound: Env fusion inh	CSC inhib	MT1-MMP act inh	MT1-MMP act inh RFP	Rce1 inhib	PABP polyA inh	Yeast UUG start	eIF4H inh
c1cc(CNC23CC4CC(CC(C4)C2)C3)ccn1
→ 19.3	16.3	-4.1	0.1	i	11.5	.	-11.3
CN(C)S(=O)(=O)c1ccc(C(=O)OCC(=O)Nc2ccc3c(c2)OCO3)cc1
→ 3.8	.	-2.0	3.7	.	.	-10.5	.
CCOC(=O)CSc1nc2ccccc2c(=O)n1CCN1CCOCC1
→ -10.5	-13.6	0.3	0.8	i	-0.7	9.6	5.4
COc1ccccc1CNC(=O)c1ccc(CS(=O)(=O)c2ccccc2C)o1
→ 10.8	-0.4	-6.1	-1.8	i	2.4	-19.3	-4.5
CN(Cc1ccc(Br)cc1)C(=O)CCN1C(=O)c2cccc([N+](=O)[O-])c2C1=O
→ 6.7	-11.0	-0.6	3.3	i	5.3	-6.9	-17.8
O=C(O)CONC(=O)c1cc(OCC(F)(F)F)ccc1OCC(F)(F)F
→ -22.2	12.2	3.4	-1.9	.	-6.9	-9.8	-14.2
Cc1cccc(C)c1Nc1nnc(SCC(=O)NC(=O)c2cccn2C)s1
→ -31.6	-6.2	1.5	-1.9	i	5.6	.	19.6
CC(C)N(CCn1cnc2c([nH]c3ccccc32)c1=O)C(C)C
→ 6.5	-12.2	0.7	2.7	i	0.3	-33.1	5.8
